# From PubChem
# VACV Venus inh = vaccinia inhibition (Venus reporter) | Vaccinia virus Venus reporter expression, fluorescence | Potency, µM (series often up to 36.5 µM), inactives show at the highest dose activity change, negative = inhibition, actives largely listed as inhibitors | hit rate 0.46% among 330,000 | AID 720580; active means well fitted inhibition curve with a large enough effect; inconclusive means small, poorly fitted or top-dose-only effect; inactive means no such curve, though single readings can be large or run the other way; tested in A549 cells; note: nearly all actives have a fitted effect of over 30% in size; inactives centre near -10
# Vaccinia mCherry = inhibitors of vaccinia virus infection (mCherry reporter signal); Vaccinia virus mCherry reporter infection, fluorescence; about a quarter of the inactives have no number; Potency, µM (top dose mostly 36.5 µM), without a hit: at the highest dose activity change, negative = inhibition, most hits filed as inhibitors; hit rate 0.63% among 310,000; AID 720579; active = well fitted inhibition curve with a large enough effect; inconclusive = small, poorly fitted or top-dose-only effect; inactive = no such curve, though single readings can be large or run the other way; tested in A549 cells; note: nearly all actives have a fitted effect of over 35% in size; inactives centre near -10
# Numbers without * were called inactive; i = inactive; ? = inconclusive; . = no result given; & = joins results of further samples; [ ] = another dose, or the depositor's remark. % is set by controls: 0 for no effect and ±100 for the full control effect; potency is the fitted concentration of half-maximal effect. Rows were taken by chance, and some 0.86% of all compounds hit somewhere here.
SMILES,VACV Venus inh,Vaccinia mCherry
Cc1cc(NC(=O)c2ccc(-c3ccc(Br)cc3)o2)cc(-c2nc3ncccc3o2)c1O,-2%,-9%
Cc1ccccc1CSc1nnc(NC(=O)Cc2cccs2)s1,-4%,-8%
CCn1c(C)cc(C=C2C(=O)c3ccccc3C2=O)c1C,2%,-6%
O=C(NC(=S)N1CCN(c2ccc([N+](=O)[O-])cc2Cl)CC1)c1ccco1,-2%,?
O=C(NCCO)C1(c2ccccc2)CCCC1,-13%,.
CC(=O)C1=C(O)C(=O)N(c2nccs2)C1c1ccc(Br)cc1 (configuration not stated),-20%,.
O=C(Nc1cccc(-c2nc3ccccc3s2)c1)C1=COCCO1,-8%,8%
O=C(NCc1ccccc1Cl)c1cc2cccc3c2n1CCS3,5%,-17%
CCCCC1CCC(C(=O)N2CC(=O)Nc3ccc(C)cc3C2c2ccc(F)cc2)CC1 (configuration not stated),-25%,i
CC1CCN(C2CC(=O)N(c3ccc(Br)cc3Br)C2=O)CC1 (configuration not stated),4%,i
O=c1c2ccccc2c2ccccc2c(=O)n1Cc1ccco1,-3%,-13%
Cc1ccc(C)c(N2N=C(C(=O)Nc3ccc(N4CCOCC4)cc3)CCC2=O)c1,-3%,-15%
COc1ccc(CNC(=O)CSc2ncc(S(=O)(=O)c3ccc(C)c(Cl)c3)c(=O)[nH]2)cc1,7%,-5%
COC(=O)c1c(NC(=O)C(C)(C)C)sc2c1CCN(Cc1ccccc1)C2,-5%,i
Cc1nn(-c2ccccc2)c2c1CC(=O)Nc1ccccc1-2,?,i
O=C(CN1C(=O)CCC1=O)NC(=O)NC1CCCC1,7%,i
COc1ccc(N(CC(=O)NCc2ccco2)S(=O)(=O)c2c(C)nn(C)c2C)cc1,-8%,i
COC(=O)COc1cccc(NC(=O)c2cccc(C)c2)c1,-13%,-4%
Cc1ccc(O)c([C@H](CCN(C(C)C)C(C)C)c2ccccc2)c1,-10%&-20%,-1%
NS(=O)(=O)c1ccc(CCNC(=O)C(=O)NCC2OCCN2S(=O)(=O)c2cc(F)ccc2F)cc1 (configuration not stated),-7%,0%
c1cncc(CNc2ncnc3sc4c(c23)CCCC4)c1,-14%,-18%
NS(=O)(=O)c1ccc(CCNC(=O)CN2C(=O)NC(c3ccccc3)(c3ccccc3)C2=O)cc1,-1%,-7%
COCC(=O)Nc1nnc(Cc2ccc(OC)cc2)s1,-7%,-11%
CC1(C)C(C(=O)N2CCN(C(=O)c3ccccc3)CC2)C1(C)C,-14%,i
CN1C(=O)CSc2ccc(NC(=O)NCc3cccnc3)cc21,-10%,-4%
NC(=O)c1ccc[n+]([C@H]2O[C@@H](COP(=O)([O-])OP(=O)(O)OC[C@H]3O[C@@H](n4cnc5c(N)ncnc54)[C@H](O)[C@@H]3O)[C@H](O)[C@@H]2O)c1,-5%,-14%
COc1ccc(CCNC(=O)c2cnc3sc(N4CCOCC4)nn3c2=O)cc1OC,-14%,-8%
Cc1nn(-c2ccccc2)c(N2CCCC2)c1/C=N/Nc1ccc(S(=O)(=O)Nc2ccccc2)cc1[N+](=O)[O-],-6%,-20%
O=C(NCc1ccccn1)c1cnn(-c2nccc(-c3cccs3)n2)c1C1CC1,-25%,i
COc1cccc(C(=O)Cn2c(NCCO)nc3ccccc32)c1,-21%,-8%[1.46 µM]
CCCCc1ccc(C(=O)c2c(N)c(C(=O)Nc3cccc(OC)c3)c3ccccn23)cc1,-3%,i
COc1ccc(Cc2nc(-c3ccc(-n4cccc4)cc3)no2)cc1OC,-21%,-20%
CCN(CC)C(=O)c1cn(CCC#N)nc1-c1ccc2c(c1)OCCO2,-9%,-1%
O=C(CN1C(=O)c2cccc3cccc1c23)N1CCN(c2ccc(F)cc2)CC1,-26%,i
COc1ccc(-c2onc3ccc(C(=O)/C=C/N(C)C)cc23)cc1,-6%,11%
Cc1cccc(OCC(=O)Nc2ccc3nc(C)sc3c2)c1,-24%,-12%
CN(CC(=O)Nc1ccccc1Cl)C(=O)c1ccc(N2C(=O)CCC2=O)cc1,6%,-3%
O=C(NCc1ccccc1)C1C(c2ccccc2)=Nc2ccccc2N1C(=O)c1cnccn1 (configuration not stated),-2%,?
COc1ccc(C2C(C(=O)Nc3ccccc3OC)=C(C)Nc3c(C(=O)Nc4ccccc4)cnn32)c(OC)c1 (configuration not stated),-28%,-11%
COc1ccc(COc2ccsc2C(=O)Nc2ccc(Cl)c(Cl)c2)cc1,?,?
COC(=O)c1ccccc1NC(=O)C1=C(C)C(=O)OC12CCCCCC2,2%,-17%
COc1cc(SC)ccc1C(=O)NCCCn1ccnc1,4%,-1%
COc1ccc(C(=O)N2CCCC(c3cc(C(=O)NCc4cccnc4)no3)C2)cc1 (configuration not stated),0%,-4%
CC(C)=CC1C(C(=O)Nc2ccc(S(=O)(=O)N3CCOCC3)cc2)C1(C)C (configuration not stated),-21%,-26%
CCC(C(=O)Nc1cccc(-c2nc3cccnc3s2)c1C)c1ccccc1 (configuration not stated),-5%,i
O=C(CN1CCOCCOCCOCCOCC1)Nc1ccccc1,-9%,i
C=C(C)C1CCC(C)=C1CC(C)(C)/C=N\n1cnnc1 (configuration not stated),-21%,-2%
CC1=C2CCC3C(CCC4=CC(=O)CCC43C)C2CC1 (configuration not stated),-11%,i
Cc1ccc(C)c(OCC(=O)Nc2ccc(S(=O)(=O)Nc3onc(C)c3C)cc2)c1,-7%,-12%
CCNC(=O)C[C@@H]1CC[C@H]2[C@@H](COC[C@H](O)CN2C(=O)C2CC2)O1,13%,-2%
Cc1ccc2nc(C)c(C(=O)N/N=C/c3cccc([N+](=O)[O-])c3)cc2c1,-12%,-6%
O=C(c1c[nH]c2ccccc12)N1CCOCC1,1%,i
COC(=O)c1cc2oc(C)cc2n1CC(=O)Nc1cc(C)cc(C)c1,-6%,i
CCOC(=O)c1c(C)[nH]c(C(=O)C(C)Sc2ccc(Cl)cc2)c1C (configuration not stated),7.1µM*,-12%[1.46 µM]
COc1ccc(C)cc1NC(=O)CCc1c(C)nn(-c2ccc(N3CCOCC3)nn2)c1C,-4%,-4%
Cc1ccc2c(cnn2C(=O)CCCC(=O)NCc2ccc(F)cc2)c1,-15%,-11%
CC(C)C(=O)Nc1nnc(SCC(=O)NC2CCCC2)s1,-5%,i
CN(CCCNC(=O)C1CCN(S(=O)(=O)N2CCC3(CC2)OCCO3)CC1)Cc1ccccc1,-10%,i
COc1cccc2cc(-c3nnc(-c4ccc(Cl)cc4)o3)c(=O)oc12,-2%,-9%
CC(C)NCC(O)COC1C2CC3CC(C2)CC1C3 (configuration not stated),-8%,i
# (continued)
SMILES,VACV Venus inh,Vaccinia mCherry
C[C@@H]1CN([C@H](C)CO)C(=O)CCCn2nncc2CO[C@@H]1CN(C)C(=O)CCC(F)(F)F,?,?
Cc1cc(S(=O)(=O)NCCCN2CCOCC2)c(C)cc1Cl,-15%,-6%
CCN(CC)S(=O)(=O)c1cc(C(=O)n2cccn2)c(Cl)cc1Cl,-1%,-9%
COc1ccc(CNC(=O)C(=O)NCC2OCCN2S(=O)(=O)c2ccc(F)cc2)cc1 (configuration not stated),-4%,i
CC(=O)N1c2c(cc(Br)cc2S(=O)(=O)N2CCN(c3ccccc3)CC2)CC1C (configuration not stated),-11%,-13%
OC(Cc1ccc2ccccc2n1)c1ccccc1 (configuration not stated),-7%,-20%
COc1ccccc1N1CCN(C(=O)c2c(C)oc3ncn(C)c(=O)c23)CC1,5%,-18%
CC(Oc1ccccc1)C(=O)Nc1ccc(S(=O)(=O)Nc2nccs2)cc1 (configuration not stated),-8%,-12%
CC(=O)c1ccc(S(=O)(=O)NC2CC(=O)N(c3ccc4c(c3)OCCO4)C2)cc1 (configuration not stated),0%,4%
O=C(c1ccncc1)N1CCN(S(=O)(=O)c2ccccc2Br)CC1,-11%,-16%
CCCn1c(SCC(=O)N2CCN(S(=O)(=O)c3ccc(Cl)cc3)CC2)n[nH]c1=O,-16%,-27%
COc1ccc(Cl)cc1NC(=O)CCC(=O)c1ccc(C)cc1,-18%,-11%
Cc1cc(NC(=O)COc2ccc(C(C)(C)C)cc2)no1,-17%,-13%
CN(CC(=O)Nc1ccc(S(=O)(=O)N2CCCC2)cc1)CC(=O)Nc1ccc(F)c(F)c1F,-6%,-10%
O=c1cc(N2CCCCC2)c(-c2ccccc2)nn1Cc1ccc(Cl)cc1Cl,-24%,-22%
CN(C(=O)Nc1cn(C)c(=O)c2ccccc12)c1ccccc1,9%,19%
COc1cccc(N=CC=C2OC(C)(C)C(C)(C)O2)c1,-11%,-8%
O=C(COc1ncnc2ccccc12)NC1CCS(=O)(=O)C1 (configuration not stated),-2%,-18%
Cc1cc(F)ccc1S(=O)(=O)N1CCCCC1CCNC(=O)C(=O)NCCN1CCOCC1 (configuration not stated),-23%,-28%
N#C/C(=C\c1c(N2CCCCCC2)nc2ccccn2c1=O)C(N)=O,-20%,-19%

# Some of the entries above, reformatted:
# Each structure is followed by: VACV Venus inh	Vaccinia mCherry
CC(=O)c1ccc(S(=O)(=O)NC2CC(=O)N(c3ccc4c(c3)OCCO4)C2)cc1 (configuration not stated)
    0%	4%
COc1ccc(Cl)cc1NC(=O)CCC(=O)c1ccc(C)cc1
    -18%	-11%
CCN(CC)S(=O)(=O)c1cc(C(=O)n2cccn2)c(Cl)cc1Cl
    -1%	-9%
O=C(COc1ncnc2ccccc12)NC1CCS(=O)(=O)C1 (configuration not stated)
    -2%	-18%
CN(C(=O)Nc1cn(C)c(=O)c2ccccc12)c1ccccc1
    9%	19%

# Next section:
SMILES,VACV Venus inh,Vaccinia mCherry
CCOc1ccc(OCCCC(=O)NCCOc2ccccc2OC)cc1,-9%,-1%
CCCCn1c(=O)c(C(C)=O)c(O)c2ccccc21,1%,-19%
CCCCn1c(N)c(N(CCOC)C(=O)CCNC(=O)c2ccc(Cl)cc2)c(=O)[nH]c1=O,-9%,-9%
CSc1ncc(Cl)c(C(=O)N(Cc2ccccc2Cl)C2CCS(=O)(=O)C2)n1 (configuration not stated),-5%,-14%
O=C(COC(=O)/C=C/c1ccccc1)NNC(=O)c1ccccc1F,-1%,-1%
Cc1c(Cl)cccc1NC(=S)N1CCN(C(=O)c2ccco2)CC1,?,-21%
O=C(c1cc(-c2ccccc2)on1)N1CCOc2ccc(CN3CCN(c4ccccn4)CC3)cc2C1,-18%,i
COc1ccc(Cl)cc1NC(=O)CN(C)C(=O)c1cc2c(s1)CCC(C)C2 (configuration not stated),-9%,-13%
COc1ccc(N2CCN(C(=O)c3ccc(COc4ccc5c(C)cc(=O)oc5c4)cc3)CC2)cc1,-2%,?
COc1cccc(CSc2nc(-c3ccccc3F)nc3c2Cc2c(CO)cnc(C)c2O3)c1,-3%,-1%
Cc1ccc(OCC(=O)Nc2ccc3c(c2)OC(F)(F)O3)c([N+](=O)[O-])n1,-15%,i
CC1CCC(NC(=O)C2CCN(c3c4c(nc5ncnn35)CCC4)CC2)CC1 (configuration not stated),-18%,i
Cc1ccc2c(C)c(C(=O)N3CCC(c4nc5ccccc5s4)CC3)oc2c1C,4%,-12%
O=C(Nc1sc2c(c1C(=O)c1ccccc1)CCCC2)c1cccnc1,-9%,-11%
O=C(COc1ccccc1C(=O)Nc1ccccc1)Nc1ccccc1Cl,-22%,-17%
O=C(Nc1ccccc1F)Nc1cc(Cl)ccc1-n1cncn1,-1%,i
COc1ccc(Cc2nc3ccc(C(=O)N4CCC[C@H]4CO)cc3o2)cc1,-14%,-12%
CC(CCc1ccccc1)NC(C)C(O)c1ccc(O)cc1 (configuration not stated),-15%&-17%,-2%&-2%
COc1ccc(/C=N/N(Cc2ccccc2)c2ccccc2)cc1O,-18%,-8%
Cc1ccc(CNS(=O)(=O)c2cnc(N)nc2)cc1,-1%,-15%
CCOc1ccccc1NC(=O)C1=C(C)Nc2ncnn2C1c1ccccn1 (configuration not stated),-4%,8%
CSC1=NCCN1C(=O)Cc1cccs1,-3%,23%
Cc1ccc(C(=O)N/C(=C\c2cn(C)c3ccccc23)C(=O)NCCN2CCOCC2)cc1,-11%,-22%
Cc1cc(C)c(NC(=O)CN2CCN(c3ccccn3)CC2)c(C)c1,-16%,-7%
Cc1ccc(C(=O)NNC(=S)NC(=O)COc2ccccc2)cc1,-5%,-14%
CCCCN1C(=O)C(CC(=O)NCCCCc2ccccc2)CC(C(=O)N2CCOCC2)=C1C (configuration not stated),-11%,i
CCCN(CC(=O)Nc1ccccc1C)C(=O)c1ccc(-c2ccc(C(C)=O)cc2)o1,-6%,i
CCOc1ccc(/C=N/NC(=O)C2CCCC2)c(OCC)c1,7%,-14%
O=C(Nc1ccn(CCCN2CCN(c3ncccn3)CC2)c(=O)n1)OCc1ccccc1,-5%,-1%
CCOC(=O)C1=CN(Cc2ccco2)S(=O)(=O)N(C)C1CC (configuration not stated),-10%,i
O=C(N/N=C/c1cccnc1)c1[nH]ncc1Br,-3%,-10%
COc1ccc(-c2c(C#N)c(N)nc3sc(C(=O)c4ccc(C)cc4)c(N)c23)cc1,-8%,-5%

# 3 compounds picked at random from the list so far, as already listed:
SMILES,VACV Venus inh,Vaccinia mCherry
CCN(CC)C(=O)c1cn(CCC#N)nc1-c1ccc2c(c1)OCCO2,-9%,-1%
CCCCn1c(N)c(N(CCOC)C(=O)CCNC(=O)c2ccc(Cl)cc2)c(=O)[nH]c1=O,-9%,-9%
COc1ccc(Cc2nc(-c3ccc(-n4cccc4)cc3)no2)cc1OC,-21%,-20%

# Rewritten with bars between the fields: entries from further up
molecule | VACV Venus inh | Vaccinia mCherry
Cc1cc(C)c(NC(=O)CN2CCN(c3ccccn3)CC2)c(C)c1 | -16% | -7%
Cc1ccc(C(=O)NNC(=S)NC(=O)COc2ccccc2)cc1 | -5% | -14%
